# PKD1 kinase inh = PKD1 (human) kinase inhibition | 200,000 compounds, 0.056% hits | PKD1 kinase fluorescence polarization assay | inhibition, %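 (about 10 µM by stock and volumes)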;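 active = inhibition of 50% or more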;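 note: controls were vehicle for no effect and a reference inhibitor for full effect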
# Target sequence (Q15139 whole entry, looked up): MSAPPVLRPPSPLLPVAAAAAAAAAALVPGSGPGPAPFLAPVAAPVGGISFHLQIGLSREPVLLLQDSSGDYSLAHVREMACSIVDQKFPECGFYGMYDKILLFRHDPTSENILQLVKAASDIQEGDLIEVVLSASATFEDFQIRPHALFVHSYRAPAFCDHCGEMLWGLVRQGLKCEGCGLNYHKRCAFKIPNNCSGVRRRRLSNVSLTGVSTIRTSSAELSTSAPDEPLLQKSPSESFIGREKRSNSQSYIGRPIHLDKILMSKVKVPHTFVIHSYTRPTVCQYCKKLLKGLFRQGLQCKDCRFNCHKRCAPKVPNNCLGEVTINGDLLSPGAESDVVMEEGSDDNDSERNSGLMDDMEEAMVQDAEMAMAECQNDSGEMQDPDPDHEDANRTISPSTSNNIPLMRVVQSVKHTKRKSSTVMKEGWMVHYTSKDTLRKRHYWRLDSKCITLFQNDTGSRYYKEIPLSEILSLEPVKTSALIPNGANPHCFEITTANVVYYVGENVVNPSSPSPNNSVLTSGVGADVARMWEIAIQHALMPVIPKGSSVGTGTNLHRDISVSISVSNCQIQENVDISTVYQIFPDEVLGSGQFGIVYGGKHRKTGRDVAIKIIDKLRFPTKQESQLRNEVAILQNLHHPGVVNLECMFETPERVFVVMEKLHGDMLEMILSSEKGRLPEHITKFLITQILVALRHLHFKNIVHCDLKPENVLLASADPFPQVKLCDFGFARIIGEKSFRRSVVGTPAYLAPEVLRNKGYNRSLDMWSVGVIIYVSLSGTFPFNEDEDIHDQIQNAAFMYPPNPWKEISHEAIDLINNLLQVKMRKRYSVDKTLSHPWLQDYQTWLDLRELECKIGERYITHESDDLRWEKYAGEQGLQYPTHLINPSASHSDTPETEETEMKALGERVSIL
# HSV replic up = HSV replication enhancement | HSV replication augmentation in cells, fold increase | maximum fold increase | 220,000 compounds, 0.005% hits | AID 1956;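 active = peak rise of 1.5-fold or more in the series; inconclusive = self-fluorescent or not available for retest; tested in PC3 cells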;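 note: first round at 10 µM; read as green reporter fluorescence; hits show the peak of a series up to 25 µM; 1 = signal of infected wells without compound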
# RGS16-Gao HTS = regulators of human RGS16-Galphao interaction. bead-based flow cytometry RGS16-Galphao binding, fluorescence; actives lie on both sides. AID 1441. 220,000 compounds, 0.38% hits. binding response (% of control), % at 10 µM;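 active = below 25% or above 175%, edge rows of some plates excepted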;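 note: Galphao activated by GDP with aluminum fluoride before binding; 100% = wells without compound and 0% = beads without RGS; some results beyond the cut were filed as inactive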
# GALR2 ag = GALR2 (human) receptor agonism; 140,000 compounds, 0.48% hits; GALR2-expressing cells, agonist activation read-out; activation, %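 (tested at 5 µM)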; AID 803;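 active = above mean plus 3 SD of all compounds, about 5% in these data, not always enough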;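 note: 0% = vehicle buffer wells and 100% = reference agonist at full effect; tested in CHO reporter cells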
# INS promoter inh = TRM-6 insulin promoter activity inhibition; TRM-6 cells (human fetal islet line), insulin promoter-eGFP reporter, imaging; reporter expression induced with tamoxifen; inhibition, % at 2 µM; 130,000 compounds, 0.9% hits; AID 1273;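 active = inhibition above the mean plus 3 SD, with well images judged a real hit on visual review, cut at about 60% in these data, passing the limit was not always enough; inconclusive = inhibition over the cutoff but images rejected on review; inactive = inhibition not above the cutoff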
# INS promoter inh cell count = second read-out of INS promoter inh, no call of its own (marks repeat the call); normalized cell count, %; measured here: cell count, toxicity; reference of the scale not given here;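 cells exposed to compound for 48 h; stained nuclei by imaging scaled within each plate; lower means fewer cells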
# HSV replic up primary fold = recorded beside HSV replic up, whose call it bears; fold increase; compound at 10 µM; measured here: primary screen fold increase 10 uM; tested in PC3 cells;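 GFP signal in the first replicate; 1 = infected wells without compound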
# Numbers without * were called inactive; i = inactive; u = inconclusive; x = not tested or not shown.
# The line under a structure holds: PKD1 kinase inh	HSV replic up	HSV replic up primary fold	RGS16-Gao HTS	GALR2 ag	INS promoter inh	INS promoter inh cell count
CCN(CC)c1ccc(/C=C(\C#N)c2ccccn2)cc1
    -21.8	u	x	102.5	-0.2	-80.0	141.9
O=c1[nH]c(CSc2nc3ccccc3s2)nc2cc(Cl)ccc12
    x	i	1.02	93.2	x	x	x
CC(C)CSc1nc2c(c(=O)[nH]c(=O)n2C)n1CCc1ccccc1
    10.6	i	0.94	89.1	1.0	x	x
COc1ccc(C(C(=O)NC2CCCC2)N(CC2CCCO2)C(=O)Cc2cccs2)cc1OC (stereo not given)
    1.2	i	1.01	104.1	x	-93.3	96.7
C(=NC12CN3CN(CN(C3)C1)C2)c1ccc2c(c1)OCO2
    -1.8	i	0.87	101.3	0.0	-54.5	135.1
CC/C(=C/c1sc2ccc(C)cc2[n+]1CCCS(=O)(=O)[O-])SC
    0.6	i	1.11	95.4	x	x	x
CCN(CC)CCCNc1nc(CN2CCOCC2)nc2sc3c(c12)CCC3
    -5.2	i	0.94	102.0	x	x	x
O=C(O)c1cccc(-n2cccc2/C=N/O)c1
    -11.2	i	0.92	103.1	-0.8	x	x
NC(=O)c1ccsc1NC(=O)c1coc2ccccc2c1=O
    0.0	i	1.03	89.2	x	-89.5	77.9
COc1cccc(OCC(O)CN2CCN(c3ccccc3)CC2)c1 (stereo not given)
    x	i	0.95	102.9	x	x	x
CN(C)S(=O)(=O)c1ccc(C(=O)Nc2ccc(S(=O)(=O)NC3=NCCCCC3)cc2)cc1
    -7.8	i	0.93	101.0	-0.9	12.7	142.2
CCOc1ccc(OCC)c(S(=O)(=O)NCc2ccc3c(c2)OCO3)c1
    -12.1	i	0.9	102.8	x	x	x
Cc1ccc(Cl)cc1N1CCN(C(=O)c2cccc3c(=O)c(C)c(-c4ccccc4)oc23)CC1
    -0.9	i	0.7	102.5	3.6	-38.7	96.4
COc1ccccc1NS(=O)(=O)c1ccc(NN=C2CCCCC2)c([N+](=O)[O-])c1
    -4.7	i	0.93	99.6	-0.8	-35.7	101.8
COc1cc(CNCc2cccnc2)ccc1OCC(=O)NC(C)(C)C
    3.0	i	1.07	97.8	x	x	x
CCOc1cc(C2C(C#N)=C(N)SC(N)=C2C#N)ccc1OCCN1CCOCC1
    -14.5	i	0.76	110.2	0.9	52.6	86.4
Cc1cc2cc(CNC(=O)Cc3ccc([N+](=O)[O-])cc3)ccc2[nH]1
    -1.1	i	1.01	40.3	x	42.9	58.1
N#C/C(=C\c1ccc(-c2cccc([N+](=O)[O-])c2)o1)c1nnc(N2CCOCC2)n1-c1ccccc1
    -0.7	i	0.78	101.3	x	-30.0	145.0
N#Cc1cnn2c(-c3cccc(C(F)(F)F)c3)ccnc12
    x	i	0.94	96.7	x	x	x
CCn1cc(CNC(=O)c2ccc(C)s2)cn1
    1.4	i	0.9	101.3	x	x	x
CC1CCCC(C)N1C(=O)CSc1nc2ncnc(N)c2[nH]1 (stereo not given)
    -5.7	i	0.81	104.4	-1.1	-193.8	85.0
Cc1cc(C)cc(CC(Cc2nc3ccccc3[nH]2)c2nc3ccccc3[nH]2)c1 (stereo not given)
    -0.7	i	0.82	79.5	-2.8	3.9	123.1
O=C(C(=O)N1CCCC1CO)N1CCCC1CO (stereo not given)
    4.1	i	0.93	101.5	x	x	x
Nc1nc(N)c2sc3nc(C(F)(F)F)cc(C(F)(F)F)c3c2n1
    0.2	i	0.81	103.5	-1.4	-38.5	123.2
CCOCCCN(C(=O)Cn1nnc(-c2ccc(C)o2)n1)C(C(=O)NCC1CCCO1)c1ccc(F)cc1 (stereo not given)
    x	i	0.94	105.5	x	x	x
CCN1CCN(Cc2cc(=O)oc3ccc(C)cc23)CC1
    x	i	0.97	100.6	x	x	x
CCOC(=O)C1(CC2CCCCO2)CCN(S(=O)(=O)c2cc(C)cs2)CC1 (stereo not given)
    -1.6	i	1.11	107.5	x	x	x
Nc1nc(-c2ccco2)nn1C(=O)c1ccc(Cl)cc1
    -2.4	x	x	102.4	-0.8	-22.9	132.8
CC(c1c(O)c2ccccc2[nH]c1=O)C1(C)CCC(O)C(C)(C)O1 (stereo not given)
    13.7	i	0.93	99.8	x	x	x
FC(F)(F)c1ccccc1NC(=S)N1CCN(c2ncccn2)CC1
    4.0	i	0.91	104.3	-3.9	-30.8	111.9
Cc1c(CCC(=O)O)c(=O)oc2cc3occ(-c4ccccc4)c3cc12
    x	i	0.9	101.3	x	x	x
Cc1ccc[n+](CC(=O)Nc2ccc([N+](=O)[O-])cc2Cl)c1
    -1.1	i	0.93	87.2	-2.0	x	x
Cc1cccc(S(=O)(=O)N(CC(=O)Nc2ccccc2C)Cc2ccco2)c1
    5.9	i	1.16	95.4	-3.0	-117.4	87.0
Cc1nc(SCC(=O)NCCc2ccccc2)c2oc3ccccc3c2n1
    -7.5	i	1.3	115.4	-1.9	-5.3	90.7
CCOc1ccc(Br)cc1S(=O)(=O)Nc1ccc(NC(=O)c2ccccc2C)cc1
    -0.3	i	0.75	101.6	-0.7	20.6	52.5
COc1ccc(Nc2nc(C)nc3c2nnn3Cc2ccccc2)cc1OC
    -0.7	i	0.9	105.5	-0.4	-50.0	120.1
CC(=O)Nc1ccc(NC(=S)NC(=O)/C=C/c2ccc(Cl)cc2)cc1
    3.4	i	0.92	98.6	x	x	x
Cc1ccc(O)c(NC2=C(Cl)C(=O)N(Cc3ccccc3)C2=O)c1
    -1.7	i	1.06	85.7	x	25.0	65.2
Cc1ccc(-n2nc(C)c(Sc3ccccc3[N+](=O)[O-])c2N)cc1
    -16.4	i	1.09	91.5	-1.7	6.5	86.9
CCOC(=O)c1ccc(N2CCN(c3ccc(F)cc3)CC2)c(NC(=O)Nc2cccc(OC)c2)c1
    0.9	i	0.83	118.0	-0.7	0.0	74.2
COc1ccc(N(CCN2C(=O)c3ccccc3C2=O)C(=O)c2cccc([N+](=O)[O-])c2)cc1
    -11.9	i	0.89	109.3	1.9	x	x
O=C(CN(C(=O)c1csnn1)c1cccc(F)c1)NCc1ccc(F)cc1
    -0.6	i	1.06	96.8	x	x	x
CCCn1c(=O)c2ccccc2n2c(SCCOc3ccc(Cl)cc3)nnc12
    4.7	i	0.88	100.0	-1.5	11.5	82.3
CC(C)Cc1nc(Cl)c(C#N)c2c1CCC2
    x	i	1.08	100.8	x	x	x
Cc1cc(NC(=O)CCNS(=O)(=O)c2cc(Br)cnc2N)ccc1Br
    -5.5	i	0.91	97.2	1.0	-33.3	117.0
O=[N+]([O-])c1ccc(NCCNS(=O)(=O)c2ccccc2)c(C(F)(F)F)c1
    -3.2	i	1.13	105.4	-0.9	-29.0	110.4
Cc1ccc(OCc2nc(-c3ccc(-n4cccc4)cc3)no2)cc1C
    -6.0	i	0.98	91.0	0.3	x	x
CCc1ccc(-c2nc(-c3ccncc3)no2)cc1
    -1.8	i	0.56	100.4	-2.6	22.6	115.5
NC(=O)CC1NC(=O)c2cc([N+](=O)[O-])cc(I)c2OCCC(C(N)=O)NC(=O)[C@@H]2CCCN2C1=O (stereo not given in full)
    -1.8	i	1.08	105.0	-0.8	-50.0	101.4
O=C(O)c1cnc(-c2ccccc2)nc1Sc1ccc(Cl)cc1
    -2.9	i	0.93	102.2	-1.6	x	x
CCNC(=S)N/N=C/c1cn(Cc2ccccc2F)c2ccccc12
    -7.1	i	1.09	102.9	-1.6	53.1	71.4
COc1ccc(NC(=O)C2CCN(C(=O)c3ccccc3)CC2)c(OC)c1
    0.9	i	1.1	104.5	-2.2	6.7	122.5
COc1ccc(-c2cc(C(=O)NCc3cccnc3)no2)cc1
    2.1	i	0.85	100.4	0.1	x	x
CO/N=C(\C)c1ncc(C(F)(F)F)cc1N1CCOCC1
    0.2	i	0.86	99.0	-2.0	18.8	132.4
COc1cc(OC)cc(C(=O)N[C@H](C(=O)Nc2ccc(NC(C)=O)cc2)C(C)C)c1
    0.6	i	0.96	97.4	x	x	x
COc1cccc(NC(=O)CSc2nnc(Cc3cccn3C)n2-c2ccc(F)cc2)c1
    3.7	i	1.03	99.4	-0.1	x	x
COc1cccc2cc(C(=O)n3ccc(C)n3)c(=O)oc12
    -11.9	i	0.92	95.6	-0.7	42.9	123.5
Cc1c(Cl)c(C(=O)Nc2nc3ccccc3n2CCN2CCCCC2)nn1C
    -20.4	x	x	132.9	-1.8	x	x
C=CCn1c2ccccc2n2nc(C)c(=O)nc12
    -2.1	i	1.02	103.6	-1.4	81.2*	84.8*
Cc1cc(C)n(-c2ccc(Oc3ccccc3)c(S(=O)(=O)O)c2)n1
    -11.9	i	0.95	101.8	x	41.7	172.4

# More structures follow:
# The line under a structure holds: PKD1 kinase inh	HSV replic up	HSV replic up primary fold	RGS16-Gao HTS	GALR2 ag	INS promoter inh	INS promoter inh cell count
COc1ccc(Br)cc1/C=C/C(=O)c1ccc(NC(C)=O)cc1
    -11.8	i	0.74	103.0	-1.5	x	x
CCNC(=O)c1ccccc1SCc1ccccc1
    -0.7	i	0.93	96.1	x	x	x
Cc1cccc(C)c1NS(=O)(=O)c1ccc2c(c1)NC(=O)CO2
    -3.8	i	0.93	96.5	x	x	x
O=C(O)C1CCCN1S(=O)(=O)c1ccc(Cl)c(Cl)c1 (stereo not given)
    1.2	i	0.82	99.7	-1.5	x	x
N#CC1=C(c2ccccc2)/C(=C/c2ccccc2)OC1=O
    -3.2	i	0.95	94.2	-1.0	35.7	38.4
CC(C)CC(=O)NN1CCCCC1
    -5.5	i	0.94	100.1	-0.1	-10.7	108.5
COc1ccc(-n2c(SCC(=O)Nc3ccc(Br)cc3)nc(O)cc2=O)cc1
    x	i	1.15	102.8	x	x	x
CC(/C=C/c1ccccc1)=N\NC(=O)CSc1ccccn1
    2.7	i	0.94	93.6	-1.3	-7.1	55.1
Cc1ccc(-n2c(=O)[nH]c3ncccc3c2=O)cc1
    2.0	i	1.07	114.8	x	x	x
Cc1ccc(C)c(Cn2nnc3c(=O)[nH]c(C4CCCN(C(=O)C5CCC5)C4)nc32)c1 (stereo not given)
    0.2	i	0.92	102.8	-0.2	x	x
CN(CCC#N)C(=O)CSc1ncnc2sc(-c3ccccc3)cc12
    -5.9	i	0.83	100.5	-0.8	x	x
CC(=O)Oc1ccc(C(=O)Nc2cc(C)ccc2NC(=O)COc2ccccc2)cc1
    6.7	x	x	99.8	-1.0	3.3	88.2
COC(=O)Cc1c(O)ccn(CCc2c[nH]c3ccc(OC)cc23)c1=O
    -2.9	i	0.93	100.0	x	x	x
OCc1nc2ccccc2n1CCCOc1ccc(Br)cc1
    3.3	i	0.93	-3.6*	-1.1	12.4	62.2
Cc1ccc(Cc2c(C)nc3nc(SCC(=O)NCc4ccco4)nn3c2C)cc1
    -19.8	i	0.71	96.5	-1.7	6.7	54.1
Cc1ccc(NC(=O)CN2CCC(Cc3ccccc3)CC2)cc1S(=O)(=O)N(C)C
    -3.4	i	0.84	99.5	x	x	x
Cc1ccc(O)c(C=Nc2cc(C)ccc2O)c1
    0.7	i	0.99	68.8	-1.9	6.5	30.3
CCCCSc1nnc(-c2ccc(C)cc2)n1C
    -10.4	i	0.79	60.8	-1.7	-20.5	88.6
CC(C)(C)OC(=O)N1Cc2cc3ccccc3nc2C1CO (stereo not given)
    x	i	0.93	109.9	x	x	x
O=C(O)Cn1cnc2c(oc3ccccc32)c1=O
    x	i	0.96	98.9	x	x	x

# Taken from the results shown for reference:
# The line under a structure holds: PKD1 kinase inh	HSV replic up	HSV replic up primary fold	RGS16-Gao HTS	GALR2 ag	INS promoter inh	INS promoter inh cell count
CCCCSc1nnc(-c2ccc(C)cc2)n1C
    -10.4	i	0.79	60.8	-1.7	-20.5	88.6
CC(C)(C)OC(=O)N1Cc2cc3ccccc3nc2C1CO (stereo not given)
    x	i	0.93	109.9	x	x	x
O=C(O)Cn1cnc2c(oc3ccccc32)c1=O
    x	i	0.96	98.9	x	x	x

# Going on with the list:
# The line under a structure holds: PKD1 kinase inh	HSV replic up	HSV replic up primary fold	RGS16-Gao HTS	GALR2 ag	INS promoter inh	INS promoter inh cell count
C=CCc1cc(OC)ccc1OCCN(C)Cc1ccccc1
    -0.1	i	0.84	99.6	x	x	x
CCc1cc2c(NCCO)ncnc2s1
    -6.2	i	1.02	98.3	-2.3	27.8	131.3
CC(=O)SCC(=O)N=c1sc2cc(F)ccc2n1C
    -4.0	i	0.92	101.6	-0.2	17.2	194.1
CCN(CC)c1ccc(NC(=O)C2CCCN(S(=O)(=O)c3cnc[nH]3)C2)c(C)c1 (stereo not given)
    2.0	i	0.93	100.0	-1.5	x	x
